Bioassay records deposited in PubChem BioAssay by Broad Institute.
Vaccinia inh – blocks a specific stage of Vaccinia orthopoxvirus infection, primary screen, cell-based, single point; 89,000 tested, 0.01% active; Vaccinia-infected cells, mCherry/Venus stage reporter fluorescence; hits give low values; some inactives read as strong as hits; AID 1053133, 2014; activity change (mCherry), % (no concentration beside the values);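 active = mCherry past -33% and 40 or more points under the early reporter, replicates agreeing; inconclusive = past -33% without that gap or agreement; tested in A549 cells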;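 also: scaled between vehicle wells and reference inhibitor wells; 23 nL library stock went into each well; one replicate is shown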
Vaccinia inh Venus – recorded beside Vaccinia inh, whose call it bears; activity change (Venus), %; measured here: Venus reporter, other viral stage;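 negative = less Venus signal; first of two replicates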
The depositor's hits bear a star; u = inconclusive; x = not tested or not shown; & = joins results of further samples. This is a subset (hit frequency here may not be typical).

Start of the data: the first 10 records (preview)
SMILES | Vaccinia inh | Vaccinia inh Venus
O=C(C[C@H]1C[C@@H]2c3cc(NS(=O)(=O)c4ccc(F)cc4)ccc3O[C@@H]2[C@@H](CO)O1)NCCc1ccccc1 | -16 | -11
O=C1CN(S(=O)(=O)Cc2ccccc2)C[C@@H]2[C@H](c3ccc(C#CC4CC4)cc3)[C@@H](CO)N12 | -22 | -11
CCCN1[C@@H]2c3ccc(-c4ccccc4OC)c(=O)n3C[C@@H]2[C@@H](CO)[C@@H]1C(=O)OC | 8 | 9
CN1CCN(C(=O)C[C@@H]2C[C@@H]3c4cc(NC(=O)C5CCC5)ccc4O[C@@H]3[C@H](CO)O2)CC1 | 18 | 17
C[C@H](CO)N1C[C@H](C)[C@@H](CN(C)C(=O)Nc2ccc(C(F)(F)F)cc2)Oc2c(NC(=O)c3ccncc3)cccc2C1=O | 21 | 12
C[C@@H]1CN([C@H](C)CO)C(=O)Cc2cc(NC(=O)C3CCCCC3)ccc2O[C@@H]1CN(C)Cc1ccc(C(=O)O)cc1 | 6 | 1
C[C@@H]1CN([C@H](C)CO)C(=O)c2cc(NC(=O)Nc3ccccc3)ccc2O[C@H]1CN(C)Cc1ccc(Oc2ccccc2)cc1 | -1 | -6
C[C@@H]1CN([C@H](C)CO)C(=O)c2cccc(NC(=O)C3CCOCC3)c2O[C@H]1CN(C)C(=O)Nc1ccccc1 | -1 | -4
O=C(C[C@@H]1CC[C@H](NC(=O)Nc2ccc3c(c2)OCO3)[C@H](CO)O1)NCc1ccc(F)cc1 | 2 | 3
CCCNC(=O)Nc1ccc2c(c1)C(=O)N(C)C[C@@H](OC)[C@H](C)CN(C(=O)C1CC1)[C@H](C)CO2 | 8 | 3

The list itself, from the start:
SMILES | Vaccinia inh | Vaccinia inh Venus
O=C(C[C@H]1C[C@@H]2c3cc(NS(=O)(=O)c4ccc(F)cc4)ccc3O[C@@H]2[C@@H](CO)O1)NCCc1ccccc1 | -16 | -11
O=C1CN(S(=O)(=O)Cc2ccccc2)C[C@@H]2[C@H](c3ccc(C#CC4CC4)cc3)[C@@H](CO)N12 | -22 | -11
CCCN1[C@@H]2c3ccc(-c4ccccc4OC)c(=O)n3C[C@@H]2[C@@H](CO)[C@@H]1C(=O)OC | 8 | 9
CN1CCN(C(=O)C[C@@H]2C[C@@H]3c4cc(NC(=O)C5CCC5)ccc4O[C@@H]3[C@H](CO)O2)CC1 | 18 | 17
C[C@H](CO)N1C[C@H](C)[C@@H](CN(C)C(=O)Nc2ccc(C(F)(F)F)cc2)Oc2c(NC(=O)c3ccncc3)cccc2C1=O | 21 | 12
C[C@@H]1CN([C@H](C)CO)C(=O)Cc2cc(NC(=O)C3CCCCC3)ccc2O[C@@H]1CN(C)Cc1ccc(C(=O)O)cc1 | 6 | 1
C[C@@H]1CN([C@H](C)CO)C(=O)c2cc(NC(=O)Nc3ccccc3)ccc2O[C@H]1CN(C)Cc1ccc(Oc2ccccc2)cc1 | -1 | -6
C[C@@H]1CN([C@H](C)CO)C(=O)c2cccc(NC(=O)C3CCOCC3)c2O[C@H]1CN(C)C(=O)Nc1ccccc1 | -1 | -4
O=C(C[C@@H]1CC[C@H](NC(=O)Nc2ccc3c(c2)OCO3)[C@H](CO)O1)NCc1ccc(F)cc1 | 2 | 3
CCCNC(=O)Nc1ccc2c(c1)C(=O)N(C)C[C@@H](OC)[C@H](C)CN(C(=O)C1CC1)[C@H](C)CO2 | 8 | 3
CO[C@@H]1CN(C)C(=O)c2cc(NC(=O)NC(C)C)ccc2OC[C@H](C)N(Cc2ccccn2)C[C@H]1C | 1 | 6
CN1c2ccc(-c3cccc(F)c3)cc2[C@@H]2[C@@H](CCN2C(=O)c2ccccc2F)[C@@H]1CO | u | x
COc1ccc2c3c([nH]c2c1)[C@H](CO)N(C(=O)C1CCOCC1)CC31CN(Cc2nccs2)C1 | 15 | 5
CN(C)C(=O)c1cccc(-c2ccc([C@@H]3[C@@H](CO)N4C(=O)CN(C(=O)C5CCCC5)C[C@@H]34)cc2)c1 | 7 | -4
C[C@@H]1CN([C@@H](C)CO)C(=O)c2cc(NS(=O)(=O)c3ccc(F)cc3)ccc2O[C@@H]1CN(C)C(=O)Nc1ccccc1 | 9 | 9
COc1ccc(CN(C)C[C@@H]2OCCCC[C@H](C)Oc3ccc(NS(=O)(=O)c4c(C)noc4C)cc3C(=O)N([C@H](C)CO)C[C@H]2C)cc1 | -8 | -10
CCC(=O)Nc1ccc2c(c1)C(=O)N(C)C[C@H](OC)[C@@H](C)CN(C(=O)CC)[C@@H](C)CO2 | 10 | 3
O=C(C[C@H]1C=C[C@@H](NC(=O)Cc2cccnc2)[C@@H](CO)O1)Nc1ccc(-c2ccccc2)cc1 | 0 | -7
Cc1ccc(S(=O)(=O)N(C)C[C@@H]2Oc3ccc(NC(=O)Nc4ccc(C(F)(F)F)cc4)cc3CC(=O)N([C@H](C)CO)C[C@H]2C)cc1 | -26 | -13
C[C@@H]1CN([C@@H](C)CO)C(=O)c2cc(NC(=O)NC3CCCCC3)ccc2O[C@@H](C)CCCCO[C@@H]1CN(C)S(=O)(=O)c1ccc(F)cc1 | 4 | 1
Cc1noc(C)c1NC(=O)N[C@@H]1C=C[C@H](CC(=O)Nc2ccc(-c3ccccc3)cc2)O[C@H]1CO | -16 | -7
C[C@@H]1CN([C@@H](C)CO)S(=O)(=O)c2ccc(C#CC3CC3)cc2O[C@H]1CN(C)C(=O)c1ccncc1 | -11 | -14
O=C(Cc1ccccn1)N1CCCCN2[C@H](CO)[C@H](c3ccc(Br)cc3)[C@@H]2C1 | 2 | 10
CC(C)NC(=O)Nc1ccc2c(c1)CC(=O)N([C@H](C)CO)C[C@H](C)[C@H](CN(C)S(=O)(=O)c1ccc(Cl)cc1)O2 | -5 | -1
CN(C)CC#Cc1ccc([C@@H]2[C@@H](CO)N3C(=O)CN(C(=O)c4ccccc4)C[C@H]23)cc1 | 12 | 4
Other entries follow:
SMILES | Vaccinia inh | Vaccinia inh Venus
Cc1ccc(OC(=O)N(C)C[C@@H]2OCc3ccccc3-c3c(n(C)c4ccccc34)C(=O)N([C@@H](C)CO)C[C@@H]2C)cc1 | u | x
CN(C)CC(=O)N1[C@H](CO)[C@@H](c2ccc(-c3cccc(C(=O)N(C)C)c3)cc2)[C@@H]1C#N | 9 | -2
COc1ccc(NC(=O)Nc2ccc3c(c2)C(=O)N([C@H](C)CO)C[C@@H](C)[C@H](CN(C)C(=O)NC2CCCCC2)OCCCC[C@@H](C)O3)cc1 | u | x
N#Cc1cccc(-c2ccc(C3[C@@H]4CN(S(=O)(=O)Cc5ccccc5)C[C@H]3N4)cc2)c1 (stereo partly specified) | u | x
C[C@@H]1CN([C@@H](C)CO)C(=O)c2cccc(NC(=O)Nc3ccc(C(F)(F)F)cc3)c2O[C@@H]1CN(C)S(=O)(=O)c1ccc(F)cc1 | u | x
C[C@@H]1CCCCO[C@H](CN(C)C(=O)Nc2ccc(F)cc2)[C@H](C)CN([C@@H](C)CO)C(=O)c2cc(NC(=O)Nc3cccc4ccccc34)ccc2O1 | 12 | -3
O=C(C[C@@H]1C=C[C@H](NC(=O)c2cccnc2)[C@@H](CO)O1)NCc1ccc(Cl)c(Cl)c1 | -3 | -5
CS(=O)(=O)N1CC(=O)N2[C@H](C1)[C@@H](c1ccc(C#Cc3cccc(F)c3)cc1)[C@@H]2CO | 10 | 7
Cc1noc(C)c1NC(=O)Nc1ccc2c(c1)C(=O)N([C@@H](C)CO)C[C@@H](C)[C@@H](CN(C)C(=O)CCCN(C)C)OCCCC[C@@H](C)O2 | 27 | 17
O=C(C[C@@H]1CC[C@@H](NC(=O)c2ccc(F)cc2)[C@H](CO)O1)NCc1ccncn1 | 6 | -3
COc1cccc(-c2cnc3c(c2)C(=O)N([C@H](C)CO)C[C@H](C)[C@@H](CN(C)Cc2cccnc2)O3)c1 | 9 | 2
CCCC#Cc1ccc([C@@H]2[C@H](C#N)N(C(=O)C3CCCC3)[C@H]2CO)cc1 | u | x
O=C(C1=C[C@@H](C2CC2)C[C@@H](OCc2ccc(CO)cc2)O1)N1CCCCCCC1 | 15 | 7
C[C@@H]1CN([C@@H](C)CO)S(=O)(=O)c2ccc(-c3ccccc3)cc2O[C@@H]1CN(C)S(=O)(=O)c1ccccc1F | u | x
C[C@H](CO)N1C[C@H](C)[C@H](CN(C)S(=O)(=O)c2ccc(Cl)cc2)OCCCC[C@H](C)Oc2ccc(NC(=O)Nc3ccc4c(c3)OCO4)cc2C1=O | -8 | 1
C[C@@H]1CN([C@@H](C)CO)C(=O)c2cc(NC(=O)Nc3ccc4c(c3)OCO4)ccc2O[C@H]1CN(C)Cc1ccc(-c2ccccc2)cc1 | u | x
CN(C)C(=O)c1ccc(-c2ccc3c(c2)[C@H]2[C@H](CCN2C(=O)C2CCCCC2)[C@H](CO)N3C)cc1 | -18 | -1
C[C@H](CO)N1C[C@H](C)[C@H](CN(C)S(C)(=O)=O)Oc2ncc(Br)cc2C1=O | 23 | 18
CN1C(=O)c2cc(NC(=O)c3ccc(F)cc3)ccc2OC[C@H]2O[C@@H](CC(=O)O)CC[C@@H]21 | 2 | -6
COc1ccc(NC(=O)Nc2cccc3c2O[C@@H](CN(C)Cc2ccccc2)[C@H](C)CN([C@@H](C)CO)C3=O)cc1 | -4 | -8
COCC(=O)Nc1ccc2c(c1)[C@@H]1C[C@@H](CC(=O)NCc3ccncc3)O[C@H](CO)[C@@H]1O2 | 3 | 6
Cc1ccc(S(=O)(=O)Nc2ccc3c(c2)C(=O)N([C@@H](C)CO)C[C@@H](C)[C@H](CN(C)S(=O)(=O)c2ccccc2)OCCCC[C@H](C)O3)cc1 | -8 | -7
C[C@@H]1CN([C@H](C)CO)C(=O)Cc2cc(NC(=O)Nc3cccc4ccccc34)ccc2O[C@@H]1CN(C)C(=O)Nc1ccc(C(F)(F)F)cc1 | -2 | 8
O=C(C[C@@H]1CC[C@@H]2[C@H](COC[C@H](O)CN2Cc2ccccc2)O1)N1CCOCC1 | 6 | 0
C[C@@H]1CN([C@@H](C)CO)C(=O)c2cccc(NS(=O)(=O)c3ccccc3)c2O[C@H]1CN(C)Cc1ccccc1 | 7 | 0
Later entries.
SMILES | Vaccinia inh | Vaccinia inh Venus
C[C@H]1CN([C@@H](C)CO)C(=O)c2cc(C#CC3CC3)cnc2O[C@H]1CN(C)Cc1ccccc1C(=O)O | 21 | 10
C[C@@H]1CN([C@H](C)CO)C(=O)c2cc(-c3ccc(C(=O)N(C)C)cc3)cnc2O[C@H]1CN(C)C(=O)CN(C)C | 39 | 12
C[C@@H]1CCCCO[C@H](CN(C)C(=O)CCCN(C)C)[C@H](C)CN([C@@H](C)CO)C(=O)c2cc(NS(=O)(=O)c3ccccc3)ccc2O1 | 30 | 10
COc1cccc(S(=O)(=O)N[C@@H]2CC[C@@H](CCn3cc(-c4ccc(F)cc4)nn3)O[C@H]2CO)c1 | -19 | -3
O=C(Nc1cccc(Cl)c1)N1[C@@H]2CNC[C@H]1C2c1ccc(-c2ccccc2)cc1 (stereo partly specified) | 1&-6 | 10&0
CCC(=O)N(C)C[C@H]1Oc2cc(/C=C/c3ccccc3)ccc2S(=O)(=O)N([C@H](C)CO)C[C@H]1C | -31 | -32
COCC(=O)N[C@H]1CC[C@@H](CC(=O)NCc2ccc(Cl)cc2)O[C@@H]1CO | -9 | -7
C[C@@H]1CCCCO[C@@H](CN(C)C)[C@@H](C)CN([C@H](C)CO)C(=O)c2cc(NS(=O)(=O)c3cn(C)cn3)ccc2O1 | 34 | 16
C[C@H](CO)N1C[C@H](C)[C@@H](CN(C)Cc2ccc(C(=O)O)cc2)OCCCC[C@H](C)Oc2ccc(NC(=O)Nc3cccc4ccccc34)cc2C1=O | 21 | 12
C[C@@H]1CN([C@@H](C)CO)C(=O)c2cc(C#Cc3cccnc3)cnc2O[C@H]1CN(C)Cc1ccc(F)cc1 | -19 | -12
CCC(=O)N(CC)C[C@H]1[C@H](c2ccc(-c3ccccc3)cc2)[C@@H](CO)N1C(C)=O | -6 | 6
C[C@@H]1CN([C@@H](C)CO)C(=O)c2cc(NS(=O)(=O)c3cn(C)cn3)ccc2O[C@@H]1CN(C)Cc1ccc(C(=O)Nc2ccccc2N)cc1 | 46 | 20
C[C@H]1CN([C@@H](C)CO)C(=O)c2cc(NC(=O)Cc3cn(C)c4ccccc34)ccc2O[C@@H]1CN(C)C(=O)Nc1ccc(F)cc1 | 3 | -3
CCCN(C)C[C@@H]1Oc2cc(-c3cccc(C#N)c3)ccc2S(=O)(=O)N([C@@H](C)CO)C[C@@H]1C | -9 | -7
Cc1noc(C)c1NC(=O)N(C)C[C@@H]1Oc2ncc(C#CC3CCCCC3)cc2C(=O)N([C@@H](C)CO)C[C@@H]1C | 1 | 10
C[C@H]1CCCCO[C@@H](CN(C)C)[C@@H](C)CN([C@@H](C)CO)C(=O)c2cc(NC(=O)CCC(F)(F)F)ccc2O1 | -7 | -2
C[C@H](CO)N1C[C@H](C)[C@@H](CN(C)C(=O)C2CCC2)Oc2ncc(C3=CCCC3)cc2C1=O | 0 | 1
C[C@H]1CN([C@@H](C)CO)C(=O)Cc2cc(NC(=O)Nc3ccc(C(F)(F)F)cc3)ccc2O[C@@H]1CN(C)S(=O)(=O)c1ccc(Cl)cc1 | -16 | -1
COc1ccc(-c2ccc([C@H]3[C@@H](CO)N4C(=O)CN(Cc5ccc(C)cc5)C[C@@H]34)cc2)cc1 | 4 | 4
CN(C)CC(=O)N1[C@@H]2c3ccc(C4=CCCC4)c(=O)n3C[C@H]1[C@H](CO)[C@H]2C(=O)NCC1CCCCC1 | 14 | 4
Cc1ccccc1-c1ccc([C@@H]2[C@@H](CO)N3C(=O)CN(C(=O)Cc4ccccn4)C[C@@H]23)cc1 | -23 | -46
COc1ccc(NC(=O)Nc2ccc3c(c2)CC(=O)N([C@H](C)CO)C[C@H](C)[C@H](CN(C)S(=O)(=O)c2cccs2)O3)cc1 | -12 | -7
Cc1noc(C)c1S(=O)(=O)Nc1ccc2c(c1)C(=O)N([C@H](C)CO)C[C@H](C)[C@H](CN(C)S(=O)(=O)c1cn(C)cn1)OCCCC[C@H](C)O2 | 14 | 4
